Sa RN4220 lethal = growth inhibition of S. aureus RN4220, primary screen, OD600 | 16 h | inhibition, % (concentration not given with the values) | 0.33% of 330,000 active | AID 1259311, 2017;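 active = z-score of -3 or lower and OD600 up to 0.18 on both plates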;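 note: plate controls were untreated cells for no effect and reference antibiotic for full effect; stock transfer was 100 nL into about 80 µL; one replicate is shown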
Autofluor counter = counter-screen for toxin protease inhibitors: compound fluorescence | compound autofluorescence counterscreen, microsphere flow cytometry; hits give high values | fluorescence intensity (test concentration not listed) | 3.1% of 360,000 active;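 active = at least 3 SD above the mean of all compounds, about 16000 in these data; inconclusive = too few beads counted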;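 note: 100 nL of 1 mM stock went into each well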
Mtb hypoxia rep = PubChem AID 1159583; 0.1% of 300,000 active; M. tuberculosis hypoxia-regulated fluorescent reporter, fluorescence; fluorescence inhibition, % (test concentration not listed);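 active = 35 to 45% if threefold the growth effect, above 45% if 1.5-fold the growth effect; inactive = the rest, general growth blockers included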;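 note: wells of about 50 µL received 100 nL stock; 0% = vehicle wells and 100% = reference inhibitor wells; whole bacteria with a GFP reporter of the hypoxia response; strong numbers were not always called active; many hits fall short of the cut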
PrP 5UTR inh = inhibition of PrP 5' UTR reporter expression; cell-based PrP 5' UTR mRNA reporter, plate reader; inhibition, % (test concentration not listed); 0.35% of 340,000 active; AID 488862, 2010;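 active = every replicate at 50% or more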;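 note: 0 = median of the neutral control wells; tested in H4 reporter cells; numbers are from one replicate; inactives centre near -14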
Sa ugtP lethal = growth inhibition of ugtP-null S. aureus, primary screen, RN4220 ugtP deletion, OD600; AID 1259309, 2017; growth inhibition, % (concentration not given with the values); 0.54% of 330,000 active; 16 h; some inactives read as strong as hits;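 active = z-score under -3 and OD600 up to 0.15 on both plates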;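 note: plate controls were untreated wells for no effect and antibiotic for full effect; wells of about 80 µL received 100 nL stock; the first replicate is given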
BJeLR lethal = MLPCN primary cell-based screen for lethality selective to Ras in HRASV12 cells. BJeLR (HRASV12) viability, CellTiter-Glo ATP luminescence, 48 h; reference of the scale not given here. inhibition, % (concentration not given with the values). 0.17% of 300,000 active. AID 1554, 2009;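 active = replicate mean above 50%; inconclusive = above 50% but judged a plate artefact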;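 note: 50 nL library stock added to about 25 µL; numbers are from one replicate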
Mtb hypoxia rep growth = further read-out of Mtb hypoxia rep, marked with its call; growth inhibition, %; measured here: M. tuberculosis growth (absorbance);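 0% = vehicle and 100% = reference antibiotic; read after six days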
An asterisk follows results filed as active; ? = inconclusive; . = not tested or not shown.

#	SMILES	Sa RN4220 lethal	Autofluor counter	Mtb hypoxia rep	Mtb hypoxia rep growth	PrP 5UTR inh	Sa ugtP lethal	BJeLR lethal
1	N#C/C(=C\c1cccc([N+](=O)[O-])c1)c1nnc2n1CCCCC2	2.9	2083	7	4	-10	-1	-12
2	Cc1c(C(=O)N2CCC3(CC2)OCCO3)sc2ncnc(N3CCc4ccccc4C3)c12	2.2	2363	-9	-1	-13	-2	2
3	N#Cc1c2c(c(Nc3ccc(O)cc3)n3c1nc1ccccc13)CCC2	-6.4	8603	3	-9	23	-4	5
4	CNC(=O)C1CCN(C(=O)c2ccc(-c3ccccc3)cc2)CC1	-12	2928	7	0	-19	-3	-4
5	O=C(NN=Cc1ccccc1C(F)(F)F)c1ccc(O)cc1	9.4	.	10	12	.	5	.
6	COc1ccc(-n2c(Cc3cc(=O)[nH]c(=O)[nH]3)nnc2SCC(=O)N2CCCC2)cc1	3.1	6333	.	.	-14	3	-11
7	O=C(Cn1cnc2ccccc21)NCc1ccccc1	4.3	21986*	9	4	10	3	2
8	O=C(COC(=O)/C=C/c1cccs1)NC(=O)Cc1ccccc1	.	3715	.	.	-18	.	22
9	CC(=O)Nc1ccc(S(=O)(=O)c2ccc(N)cc2)cc1N	3.8	5187	.	.	-14	8	5
10	Cc1cc(OC(=O)c2cc(F)c(F)cc2Cl)nc(C)n1	4.4	9807	11	20	-16	-4	2
11	O=CN1CCCN(C(=O)CC2C(=O)NCCN2Cc2cccc(Oc3ccccc3)c2)CC1 (stereo not drawn)	1.5	6375	-5	2	-3	0	-6
12	CSCC(O)Cn1[nH]c(=O)c2cc(Cl)c(Cl)cc2c1=O (stereo not drawn)	3.9	4578	6	-5	-1	6	-2
13	COc1ccc(NS(=O)(=O)c2cc(NC(=O)c3ccc(Cl)cc3)ccc2N2CCOCC2)cc1	2.4	3470	-4	4	9	0	.
14	NC(=O)c1ccccc1NC(=O)NC1CCCCC1	5.2	22128*	8	9	-16	-5	6
15	COCCCn1c(SCC(=O)Nc2ccc3c(c2)OCCO3)nnc1-c1ccoc1C	-0.1	4063	.	.	-11	2	11
16	O=C(CSc1ccccc1)NCc1ccccn1	2.1	2017	6	6	-31	1	1
17	O=C(COC(=O)c1cccnc1Nc1ccccc1F)NC1CC1	-1.5	2600	6	4	-7	0	4
18	O=C(Nc1cccc(-c2csc(-c3ccccc3)n2)c1)c1cccs1	27	12289	-3	-1	-19	59	-17
19	CC(C)(C)c1ccc(C(=O)OCC(=O)N2CCC(c3ccccc3)=N2)cc1	11	?	4	7	-2	6	.
20	Cn1cc(C(=O)c2ccc(Cl)cc2Cl)cc1C(=O)N/N=C(\N)COc1ccc(F)cc1	.	2409	.	.	-4	.	6
21	O=C(N/N=C1/CC2C=CCC12)c1ccco1 (stereo not drawn)	.	8820	.	.	-25	.	-3
22	O=C(c1ccccc1)c1cccc(NC(=O)c2ccc(Br)o2)c1	7.3	4042	.	.	-36	-7	7
23	Cc1ccc(C)c(Nc2nc(-c3cccnc3)cs2)c1	4.5	3031	-3	0	-29	-5	-5
24	Cc1cccc(C)c1NC(=O)c1cccnc1	3.9	3455	4	-1	-2	5	-7
25	FC(F)(F)c1ccc2c(c1)C1C=CCC1C(c1ccncc1)N2 (stereo not drawn)	-7.4	4399	5	17	2	7	-4
26	FC(F)(F)c1ccc(C=NNC(=S)NC2CCCCC2)cc1	68	.	-1	0	.	2	.
27	Cc1[nH]n(-c2ccccc2)c(=O)c1C(=O)Nc1ccccc1	14	5369	4	-2	-24	7	-1
28	NNC(=O)C1CC1(c1ccccc1)c1ccccc1 (stereo not drawn)	2.5	6139	14	1	-16	6	2
29	Cc1ccc(S(=O)(=O)N(C)C)cc1NC(=S)NNC(=O)C1CC1	4.2	9990	0	-3	-11	13	-3
30	CCN(C[C@H]1N[C@@](Cc2ccccc2)(C(=O)OC)[C@H]2C(=O)N(C)C(=O)[C@@H]12)C(=O)Nc1ccccc1	1.0	2888	-8	-24	-8	0	.

In a second layout: results already given.
(11) O=CN1CCCN(C(=O)CC2C(=O)NCCN2Cc2cccc(Oc3ccccc3)c2)CC1 (stereo not drawn)
- Sa RN4220 lethal = 1.5
- Autofluor counter = 6375
- Mtb hypoxia rep = -5
- Mtb hypoxia rep growth = 2
- PrP 5UTR inh = -3
- Sa ugtP lethal = 0
- BJeLR lethal = -6

(12) CSCC(O)Cn1[nH]c(=O)c2cc(Cl)c(Cl)cc2c1=O (stereo not drawn)
- Sa RN4220 lethal = 3.9
- Autofluor counter = 4578
- Mtb hypoxia rep = 6
- Mtb hypoxia rep growth = -5
- PrP 5UTR inh = -1
- Sa ugtP lethal = 6
- BJeLR lethal = -2

(13) COc1ccc(NS(=O)(=O)c2cc(NC(=O)c3ccc(Cl)cc3)ccc2N2CCOCC2)cc1
- Sa RN4220 lethal = 2.4
- Autofluor counter = 3470
- Mtb hypoxia rep = -4
- Mtb hypoxia rep growth = 4
- PrP 5UTR inh = 9
- Sa ugtP lethal = 0
- BJeLR lethal = .

Remaining list, next part.
#	SMILES	Sa RN4220 lethal	Autofluor counter	Mtb hypoxia rep	Mtb hypoxia rep growth	PrP 5UTR inh	Sa ugtP lethal	BJeLR lethal
31	Cc1cccc(N(C(=O)CCC(=O)Nc2cc(C)on2)C(C(=O)NC2CCCC2)c2cccnc2)c1 (stereo not drawn)	2.8	3738	2	2	-6	5	7
32	O=C1[C@H]2[C@@H](C(=O)N1c1cccc3ccccc13)C1(C(=O)c3ccccc3C1=O)N1CCC[C@@H]21	8.4	4330	12	9	-10	-9	2
33	O=C(O)c1ccc(N2CCCS2(=O)=O)cc1	-0.9	3657	8	-2	-21	11	-5
34	COC(=O)C(C)Sc1nc2c(cnn2-c2ccc(Cl)cc2)c(=O)[nH]1 (stereo not drawn)	2.3	3498	-11	5	-9	2	11
35	Cc1cc2cc(CNC(=O)c3ccc(S(=O)(=O)N4CCCCC4)cc3)ccc2n1C	8.6	1944	3	5	-3	-9	4
36	Nc1ccccc1Nc1cc(-c2cccc(Cl)c2)nn1-c1ccccc1	15	8300	2	0	-21	-11	3
37	N#C/C(=C\c1cc([N+](=O)[O-])c(N2CCOCC2)cc1N1CCOCC1)c1nc2ccccc2[nH]1	1.0	4785	.	.	-4	1	1
38	Cc1cccc(NC(=O)CCSc2ccccc2)c1C	-0.9	2051	-21	1	-27	-2	-1
39	Cc1nnc(Sc2cc(C(=O)NCCCN(C)Cc3ccccc3)c3ccccc3n2)s1	1.5	2213	-3	4	-20	2	6
40	COc1ccc(/C(N)=N/O)c(OC)c1	2.1	3427	-5	6	-3	-2	-13
41	CCSc1nnc(NC(=O)C2C3C=CC(C3)C2C(=O)O)s1 (stereo not drawn)	2.5	7747	4	5	-29	7	-6
42	O=C(COC(=O)c1ccc(F)cc1F)Nc1ncccn1	6.1	4130	-5	3	-1	6	6
43	CCOc1ccc(NC(=O)c2ccccc2O)cc1	5.1	?	3	7	-77	11	7
44	c1ccc2c(-c3nn[nH]n3)cccc2c1	2.2	2628	10	5	-24	4	-18
45	CC1(C)CC(=O)C=C(c2cc3ccccc3s2)C1	8.2	3911	4	8	-6	-1	-7
46	CCOc1ccccc1N1CCN(C(=O)NCc2ccc(Cl)cc2)CC1	4.1	4475	6	0	-1	7	2
47	COCc1ccc(C(=O)N2CCCC(Nc3ccc(C(C)C)cc3)C2)s1 (stereo not drawn)	1.1	5882	0	4	-22	3	7
48	COc1ccc(OCC(=O)Nc2ccccc2N2CCCCC2)cc1	-3.7	5661	-2	-2	23	4	21
49	Cc1ccc(C)c(NC(=O)CSc2nnc(CCNC(=O)OC(C)(C)C)o2)c1	-0.9	15807	3	-4	-2	0	0
50	Cc1cccc(N2C(=O)CC(Sc3ccccc3C(=O)O)C2=O)c1 (stereo not drawn)	8.7	2473	7	-16	-8	12	0
51	CCc1noc(C)c1C(=O)Nc1ccc(C#N)cc1	3.6	?	11	-1	-2	7	-4
52	CCOC(=O)[C@@H]1[C@H]2COc3ccccc3[C@@H]2N2C(=O)N(c3cccc(Cl)c3)C(=O)[C@@]12C	.	4794	.	.	-24	.	5
53	O=C(NC(=S)NCCN1CCOCC1)c1ccccc1	-1.3	2010	3	11	-4	9	3
54	O=C(CC(c1ccccc1)c1cc(Br)ccc1O)N1CCCC1 (stereo not drawn)	6.6	3608	3	-2	-21	1	-3
55	Cc1cc(C)cc(C(=O)OCC(=O)NCCNC(=O)COC(=O)c2cc(C)cc(C)c2)c1	4.8	5977	-10	-6	-7	8	5
56	Clc1cc(-c2ccc(/C=N/n3cnnc3)o2)ccc1Br	.	2383	.	.	-3	.	-1
57	COC(=O)c1c(NC(=O)CN2C(=O)NC3(CCC(C)CC3)C2=O)sc2c1CCC2 (stereo not drawn)	7.7	2968	21	41	-3	-12	.
58	COc1ccc(C(=O)Cn2c(NCCO)nc3ccccc32)cc1OC	6.6	9701	1	3	-8	-5	-8
59	O=C(Nc1cc(N2CCOCC2)ncn1)c1ccccc1	27	2430	12	10	-23	15	1
60	CC(C)(C)OC(=O)N[C@@H](Cc1ccccc1)C(=O)NCC1CCC(C(=O)O)CC1 (stereo partly drawn)	4.4	4426	5	8	-30	9	8

Record cards (already shown):
Cc1cccc(N(C(=O)CCC(=O)Nc2cc(C)on2)C(C(=O)NC2CCCC2)c2cccnc2)c1 (stereo not drawn) is listed with Sa RN4220 lethal: 2.8; Autofluor counter: 3738; Mtb hypoxia rep: 2; Mtb hypoxia rep growth: 2; PrP 5UTR inh: -6; Sa ugtP lethal: 5; BJeLR lethal: 7
Cc1cc2cc(CNC(=O)c3ccc(S(=O)(=O)N4CCCCC4)cc3)ccc2n1C is listed with Sa RN4220 lethal: 8.6; Autofluor counter: 1944; Mtb hypoxia rep: 3; Mtb hypoxia rep growth: 5; PrP 5UTR inh: -3; Sa ugtP lethal: -9; BJeLR lethal: 4

(continued)
#	SMILES	Sa RN4220 lethal	Autofluor counter	Mtb hypoxia rep	Mtb hypoxia rep growth	PrP 5UTR inh	Sa ugtP lethal	BJeLR lethal
61	Cc1oc2c(C)c3oc(=O)c(CCC(=O)N4CCC(C(=O)NCCC(=O)O)(c5ccccc5)CC4)c(C)c3cc2c1C	1.7	5464	-3	7	-5	-2	6
62	COc1ccc(NC(=O)NCCCN2CCCCC2C)cc1 (stereo not drawn)	-0.3	2409	.	.	6	4	0
63	CS(=O)(=O)N(CC(=O)NCCSCc1ccccc1)c1ccccc1Cl	3.5	3790	1	-8	-17	3	1
64	O=S(=O)(Nc1ncnc2sccc12)c1cccc(F)c1	3.6	2860	5	3	-19	-3	.
65	CC(=NOCc1ccc(Br)cc1)c1ccccn1	9.2	.	-2	-6	.	20	.
66	COc1ccc(C2(C(F)(F)F)NC(=O)N(C)C(=O)N2C)cc1 (stereo not drawn)	6.7	9765	9	8	-11	3	-4
67	COc1cc(C(=S)N2CCOCC2)ccc1OC(=O)c1ccc([N+](=O)[O-])cc1[N+](=O)[O-]	1.8	3576	12	-5	-20	3	-1
68	O=C(O)CCC(=NNc1ccccc1[N+](=O)[O-])c1cccs1	29	.	13	12	.	6	.

In the list so far, six have two or more sulfur atoms:
#	SMILES	Sa RN4220 lethal	Autofluor counter	Mtb hypoxia rep	Mtb hypoxia rep growth	PrP 5UTR inh	Sa ugtP lethal	BJeLR lethal
18	O=C(Nc1cccc(-c2csc(-c3ccccc3)n2)c1)c1cccs1	27	12289	-3	-1	-19	59	-17
29	Cc1ccc(S(=O)(=O)N(C)C)cc1NC(=S)NNC(=O)C1CC1	4.2	9990	0	-3	-11	13	-3
39	Cc1nnc(Sc2cc(C(=O)NCCCN(C)Cc3ccccc3)c3ccccc3n2)s1	1.5	2213	-3	4	-20	2	6
41	CCSc1nnc(NC(=O)C2C3C=CC(C3)C2C(=O)O)s1 (stereo not drawn)	2.5	7747	4	5	-29	7	-6
63	CS(=O)(=O)N(CC(=O)NCCSCc1ccccc1)c1ccccc1Cl	3.5	3790	1	-8	-17	3	1
64	O=S(=O)(Nc1ncnc2sccc12)c1cccc(F)c1	3.6	2860	5	3	-19	-3	.

Entries by screen from the list.
Nos. 61 to 67 in Sa RN4220 lethal, in turn: 1.7, -0.3, 3.5, 3.6, 9.2, 6.7, 1.8
Nos. 61 to 67 in Autofluor counter, in turn: 5464, 2409, 3790, 2860, ., 9765, 3576

Compound activity as filed in PubChem BioAssay.
